WNV NS2B-NS3 inh: inhibitors of West Nile virus NS2B-NS3 protease. P06935. WNV NS2B-NS3 protease, fluorogenic substrate Ex360/Em465; active compounds read low. z-score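 (tested at a level between 10 and 100 µM)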. 65,000 tested, 0.18% active;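 active means z-score at -3 or under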;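 further: score is relative to mean and spread of the compound wells of a plate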
Target sequence (P06935 1371-1501 limits assumed): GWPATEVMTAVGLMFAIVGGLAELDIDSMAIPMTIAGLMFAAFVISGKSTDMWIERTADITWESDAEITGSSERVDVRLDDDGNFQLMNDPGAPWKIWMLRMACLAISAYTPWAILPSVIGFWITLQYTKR
Target sequence (P06935 1502-1679 limits assumed): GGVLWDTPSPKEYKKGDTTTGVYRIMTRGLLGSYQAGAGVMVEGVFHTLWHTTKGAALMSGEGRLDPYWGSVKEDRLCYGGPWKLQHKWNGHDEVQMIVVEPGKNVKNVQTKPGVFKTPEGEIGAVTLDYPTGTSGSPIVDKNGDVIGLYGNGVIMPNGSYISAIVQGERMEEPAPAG
Hsc70 ATP site: small molecules displacing fluorescent ligand from Hsc70 – biochemical, fluorescence polarization, primary screen (AID 568); Hsc70 fluorescence polarization, probe displacement; higher % means a stronger effect; strong numbers were not always called active; 83,000 tested, under 10 active; displacement, % at 20 µM, or IC50 in µM where a hit was titrated;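 active means displacement above 50% without optical interference and an IC50 on retest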;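 further: ATPase domain with a fluorescein-tagged ATP probe; 0% = vehicle and 100% = excess ADP; read after one hour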
MT1-MMP promoter: MT1-MMP gene expression reporter suppression – cell-based, luciferase reporter, luminescence (AID 618). MT1-MMP promoter luciferase reporter cells, luminescence. calls from a first round at 10 µM; hits with a dose series show EC50 in µM. 87,000 tested, 0.62% active;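 active means over half of the reporter light lost at 10 µM or EC50 under 50 µM; inactive means the rest and hits that failed the dose series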;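 further: actives suppress MT1-MMP promoter-driven transcription so potencies describe inhibitors; HT1080 fibrosarcoma cells; overnight exposure; toxic or luciferase-blocking compounds were not removed from the actives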
* marks the source's active call; other numbers are inactive results; i = inactive; . = no result given; & = joins results of further samples. This is a subset, so the mix of outcomes need not match the whole.

SMILES | WNV NS2B-NS3 inh | Hsc70 ATP site | MT1-MMP promoter
CCOc1cc(NC2CS(=O)(=O)CC2O)c(OCC)cc1NC(=O)c1ccccc1 (stereo unspecified) | -0.63 | -1.0% | i
Cc1nc(CS(=O)c2ccc(Cl)cc2)cc(NCc2ccc(Cl)cc2Cl)n1 (stereo unspecified) | . | 5.0% | i
Cc1cc(NC(=O)CSc2nc(C(C)C)nc3sc(C)c(C)c23)no1 | -2.03 | 1.9% | i
Cc1nc(NCC2CCCO2)c2nnn(Cc3ccccc3Cl)c2n1 (stereo unspecified) | -0.64 | 1.8% | i
O=C1c2oc3ccc(F)cc3c(=O)c2C(c2cccc(O)c2)N1CCCN1CCOCC1 (stereo unspecified) | 0.13 | -5.8% | i
C=CCc1ccc(OCCOCCNCCCC)c(OC)c1 | . | 4.5% | i
Cc1noc(NS(=O)(=O)c2ccc(N3Cc4ccccc4C3=O)cc2)c1C | -0.29 | -2.5% | i
COC(=O)Cc1csc(N)n1 | -0.71 | 1.4%&-5.6% | i
CC(CCc1ccccc1)NC(=O)C1CCN(S(=O)(=O)c2cnc[nH]2)CC1 (stereo unspecified) | 0.34 | -1.2% | i
COc1cccc(C(=O)Nc2ccc3nc(N4CCN(c5ncccn5)CC4)cc(C)c3c2)c1OC | . | -3.6% | i
COC(=O)c1[nH]c2c(c1C)C(=O)CCC2 | 0.22 | 7.8% | i
Cc1ccccc1Oc1ccc(Oc2ccccc2C)nn1 | 1.21 | 1.8% | i
c1ccc2[nH]c(NCCN3CCOCC3)nc2c1 | -0.38 | 7.3% | i
COc1ccc(C(=O)Nc2cccnc2)cc1S(=O)(=O)N1CCOCC1 | -0.71 | -1.6% | i
COC(=O)C1=C(C)NC(=O)CC1c1cc2c(cc1Br)OCO2 (stereo unspecified) | -0.76 | -2.7% | i
CCn1c(SCC(=O)OC)nnc1C1CCCCC1 | . | 2.7% | i
Nc1nc(CN2CCN(c3cccc(Cl)c3)CC2)nc(N2CCCc3ccccc32)n1 | -0.00985 | -2.6% | i
O=C(c1cc(-c2ccccc2)on1)N1CCN(Cc2ccc3c(c2)OCO3)CC1 | -0.29 | 2.6% | i
CCOC(=O)C1=C(C)N(c2ccccc2)C(=O)C1 | . | -0.2% | i
c1cncc(-c2nc(-c3ccc4c(c3)OCO4)cs2)c1 | 1.55 | 3.3% | i

The final three records of the section above lead into the next:
SMILES | WNV NS2B-NS3 inh | Hsc70 ATP site | MT1-MMP promoter
O=C(c1cc(-c2ccccc2)on1)N1CCN(Cc2ccc3c(c2)OCO3)CC1 | -0.29 | 2.6% | i
CCOC(=O)C1=C(C)N(c2ccccc2)C(=O)C1 | . | -0.2% | i
c1cncc(-c2nc(-c3ccc4c(c3)OCO4)cs2)c1 | 1.55 | 3.3% | i
O=C(NCC1(N2CCOCC2)CCCCC1)c1ccc(Cl)c(S(=O)(=O)NCc2ccco2)c1 | 0.4 | -3.3% | i
CCOc1ccc(/C(O)=C2/C(=O)C(=O)N(c3nc(C)c(C)s3)C2c2ccco2)cc1 (stereo unspecified) | 0.29 | -12.0% | i
COc1cccc(OCCOc2c(OC)cccc2OC)c1 | 0.12 | 0.7% | i
COc1ccc(-c2cc3nc(C)cc(C)n3n2)cc1 | . | 5.9% | i
Cc1ccc(C)c(-n2c(CNC(=O)c3ccco3)nnc2SCC(=O)Nc2nccs2)c1 | -0.02 | 2.8% | i
CC(C)c1nc2sc3c(c2c(=O)o1)CCCC3 | 0.61 | -0.7% | i
NC(=O)c1ccccc1OCCOCCOCCOc1ccccc1C(N)=O | 1.05 | -8.2% | i
CCOC(=O)C(C)n1cnc2sc(C)c(C)c2c1=O (stereo unspecified) | . | 5.0% | i
CCC(Nc1nc(-c2ccccc2)nc2ccccc12)C(=O)O (stereo unspecified) | . | 2.8% | i
CCC(C)COC(=O)c1ccc(C(=O)O)cc1 (stereo unspecified) | -0.5 | 4.7% | i
CCOC(=O)C1=C(CSc2nc(C)cc(C)c2C#N)OC(N)=C(C#N)C1c1cccs1 (stereo unspecified) | 0.17 | 0.5% | i
O=C(CCC1COc2ccccc2O1)Nc1ncccc1O (stereo unspecified) | -0.33 | 0.8% | i
COc1ccc(-c2nc(N3CCOCC3)nc3nn4c(C)c(CCC(=O)O)c(C)nc4c23)cc1 | 0.85 | -5.3% | i
CCOc1ccc(C2=NNC(c3cccs3)=Nc3ccc(OC)cc32)cc1OCC | . | 6.5% | i
Cc1cc(N2CCOCC2)n2nc(-c3cccc(F)c3)cc2n1 | 2.32 | 0.4% | i
CC1(C)CC(=O)C=C(Nc2ccc(Br)cn2)C1 | -0.24 | -0.3% | i
COc1ccc(O)c(C(=O)c2cc(C#N)c(=O)n(CCN3CCOCC3)c2)c1 | 0.78 | 3.8% | i
COc1ccc(C2(CNC(C)=O)CCCC2)cc1OC | 0.17 | -2.1% | i
O=C(Cn1nc(Cc2cccnc2)c2ccccc2c1=O)NCc1ccc2c(c1)OCO2 | 3.35 | -2.4% | i
CCCS(=O)(=O)N1CCC(C(=O)NCCN(CC)c2ccccc2)CC1 | -0.57 | -2.0% | i
CCCN(CCC)CCCNC(=O)c1cc2cc3ccc(OC)cc3nc2o1 | 3.62 | 11.2% | i
CN(C)CCCNc1oc(-c2cccc(Cl)c2)nc1C#N | 0.54 | 3.1% | i
Oc1c(C(c2cccs2)N2CCN(c3ccccc3)CC2)sc2ncnn12 (stereo unspecified) | -1.26 | 4.3% | i
COc1ccc2c(c1)c(=O)c(Br)c(C)n2Cc1ccccc1 | -0.88 | -2.3% | i
COc1ccc(OCC(=O)Nc2ccccc2O)cc1 | . | -3.8% | i
Cc1ccc(C2CC(c3ccccc3C)n3nc(N)nc3N2)cc1 (stereo unspecified) | -0.39 | -2.9% | i
CC1=C(C(=O)Nc2cccnc2)C(c2cccnc2)n2nc(-c3cccs3)nc2N1 (stereo unspecified) | 0.64 | -5.8% | i
CSc1nc2nc3c(c(=O)n2[nH]1)CCC3 | . | 3.4% | i
CC(C)(C)c1ccc(OCCN2CCCC2)cc1 | -0.31 | 3.8% | i
CCC(C)c1ccc2oc(-c3ccc(NC(=O)Cn4cnc5c(=O)n(C)c(=O)n(C)c54)cc3)nc2c1 (stereo unspecified) | 2.08 | -12.3% | i
Cc1nnc(SCC(=O)N2CCOCC2)s1 | 0.14 | -2.1% | i
O=C(NCc1nc2ncc(Br)cc2[nH]1)c1ccccc1 | 0.21 | -4.9% | i
COc1cc(C(N)=O)ccc1OCc1ccccc1 | -0.11 | -5.9% | i
CCOC(=O)c1cnc2c(OC)cccc2c1N1CCN(c2ccc(OC)cc2)CC1 | -0.09 | 5.8% | i
CC(=O)C1C(c2ccc(O)cc2)NC(=O)NC1(O)C(F)(F)F (stereo unspecified) | -0.29 | 0.3% | i
N#Cc1c2ncn(CC(=O)c3ccc(Br)cc3)c(=O)c2c2n1CCC2 | 0.71 | -0.4% | i
CCOc1ccccc1N1CCN(c2nc3ccccc3nc2C(C#N)C(=O)OC)CC1 (stereo unspecified) | 0.12 | 5.3% | i
COc1cc(OC)c(N(C)C(=O)CCNC(=O)Cn2cnc3ccccc3c2=O)cc1Cl | -1.56 | -5.0% | i
Cn1nc(OCC(N)=O)ccc1=O | -0.42 | -2.8% | i
Cc1cccc(NC(=O)C2CCCN(c3nc(C)cc(C)n3)C2)c1 (stereo unspecified) | -1.11 | -0.7% | i
CC(=O)Nc1ccc(S(=O)(=O)NC(CC(=O)O)c2ccc(OC(C)C)cc2)cc1 (stereo unspecified) | -0.53 | 2.8% | i
O=C(CSc1nnc2sc3ccccc3n12)c1ccco1 | 0.44 | -5.7% | i
COc1ccc(S(=O)(=O)NCCC(=O)NC2CCCCCCC2)cc1 | -0.18 | -2.0% | i
CC(=O)c1oc2ccccc2c1NC(=O)CN1CCCCC1 | . | 4.6% | i
O=C(Nc1nsc(-c2ccccc2)n1)c1ccncc1 | -0.61 | -7.3% | i
CCOC(=O)c1cn(CC)c2cc(N3CCOCC3)c(F)cc2c1=O | 0.03 | -4.7% | i
COc1ccc(-n2ncc3c(NCC(C)C)ncnc32)cc1 | -0.52 | 2.2% | 6.31µM*
CC(=O)O[C@]1(C(C)=O)CC[C@H]2[C@@H]3C=C(C)C4=CC(=O)CC[C@]4(C)[C@H]3CC[C@@]21C | 0.17 | 1.0% | i
CC(=O)CC(C)(C)S(=O)(=O)c1ccc(Oc2ccc(S(=O)(=O)C(C)(C)CC(C)=O)cc2)cc1 | . | 0.5% | i
O=C(CCc1nc2ccccc2[nH]1)NCc1ccc2c(c1)OCO2 | -0.66 | 1.2% | i
CCC(=O)Nc1ccc2c(c1)nc1n2CCSC1 | 0.51 | -4.1% | i
COc1ccccc1NC(=O)CSc1nnc(-c2ccncc2)n1CC1CCCO1 (stereo unspecified) | -0.1 | 6.7% | i
CCOC(=O)C(C)Sc1nc2c(c(=O)[nH]c(=O)n2C)n1Cc1ccc(Cl)cc1 (stereo unspecified) | -0.43 | 4.5% | i
N#CCCn1c(SCC(=O)NCCc2ccc(F)cc2)nc2ccccc21 | 0.85 | 0.9% | i
CSC1=N/C(=C\c2ccc3c(c2)OCO3)C(=O)S1 | . | 3.7% | i
O=C1C2C3C=CC(C3)C2C(=O)N1CCCCN1C(=O)C2C3C=CC(C3)C2C1=O (stereo unspecified) | -0.79 | 7.1% | i
COC(=O)C1=C(C)OC(N)=C(C#N)C1c1ccco1 (stereo unspecified) | . | -0.7% | i
Cc1ccc2nc3c(cc(C(=O)NCCCn4ccnc4)n3C)c(=O)n2c1 | 4.72 | 3.3% | i
O=C(c1cccs1)c1cn(CC(=O)N2CCc3ccccc3C2)c2ccccc12 | -0.52 | 3.8% | i
CCOc1ccccc1C(=O)NCc1ccco1 | 0.49 | 0.1% | i

Random excerpt: 5 entries already listed
SMILES | WNV NS2B-NS3 inh | Hsc70 ATP site | MT1-MMP promoter
CCOc1ccccc1C(=O)NCc1ccco1 | 0.49 | 0.1% | i
CCOC(=O)C(C)Sc1nc2c(c(=O)[nH]c(=O)n2C)n1Cc1ccc(Cl)cc1 (stereo unspecified) | -0.43 | 4.5% | i
O=C(CCc1nc2ccccc2[nH]1)NCc1ccc2c(c1)OCO2 | -0.66 | 1.2% | i
CC(=O)c1oc2ccccc2c1NC(=O)CN1CCCCC1 | . | 4.6% | i
CC(=O)O[C@]1(C(C)=O)CC[C@H]2[C@@H]3C=C(C)C4=CC(=O)CC[C@]4(C)[C@H]3CC[C@@]21C | 0.17 | 1.0% | i

(list continues)
SMILES | WNV NS2B-NS3 inh | Hsc70 ATP site | MT1-MMP promoter
O=C(N/N=C/c1cccc(OCc2ccccc2)c1)c1cccs1 | . | 2.5% | i
CCCCn1nc(C(=O)N2CCc3ccccc32)c2ccccc2c1=O | 0.02 | -3.5% | i
N#Cc1c(N)nc(N2CCCC2)c(C#N)c1-c1ccc(Cl)cc1 | -0.91 | -3.2% | i
O=S(=O)(CCc1nnc(-c2ccc(Br)cc2)o1)c1ccc(Cl)cc1 | . | -4.5% | i
O=C(Nc1cccnc1)c1ccc(S(=O)(=O)N2CCCCCC2)cc1 | . | -1.3% | i
Cc1ccc(C(=O)NC2CCN(C(=O)NC3CCCCC3)CC2)cc1 | . | -4.1% | i
Cc1ccc(NC(=O)CCn2c(=O)oc3ccccc32)c(C)c1 | 1.71 | 3.6% | i
CCOC(=O)N1CCN(C(=O)CSc2nnc(Cc3ccccc3)o2)CC1 | 0.36 | -0.8% | i
Cc1cccc(C)c1NC(=O)CSc1nnc([C@H](C)NC(=O)OC(C)(C)C)o1 | -0.05 | -4.2% | i
Cn1c(N)c(S(=O)(=O)c2ccc(Br)cc2)c2nc3ccccc3nc21 | 0.54 | -0.1% | i
Cn1c(=O)c2c(nc(SCc3cccnc3)n2Cc2ccc(F)cc2)n(C)c1=O | -0.17 | -1.6% | i
Brc1cccc(-c2n[nH]c(-c3ccccc3)n2)c1 | -1.56 | 5.7% | i
COc1ccc(N2CCN(Cc3cc(=O)oc4ccc(C)cc34)CC2)cc1 | . | 3.5% | i
C=CCN(C(=O)Nc1ccc2oc(C)nc2c1)c1ccccc1 | . | -0.2% | i
COC(=O)CSC1=C(C#N)C(c2ccc(Cl)cc2)C(C(=O)OC)C(=O)N1 (stereo unspecified) | 2.09 | -3.2% | i
c1ccc(Cn2nnnc2C(c2cccs2)N2CCOCC2)cc1 (stereo unspecified) | -0.26 | -6.3% | i
Cc1ccc(S(=O)(=O)N2CCCC(C(=O)N(Cc3cccs3)C3CC3)C2)cc1 (stereo unspecified) | -0.75 | -3.5% | i
O=C(O)c1cc(=O)cc(C(=O)O)[nH]1 | 2.3 | -2.2% | i
Nn1c(Cc2cccc3ccccc23)nnc1SCn1nnc2ccccc2c1=O | . | 4.2% | i
COC(=O)C(C(=O)OC)C(C(C)C)C(C(=O)OC)C(=O)OC | -0.93 | -1.2% | i
C1CCc2c(nc3nnnn3c2N2CCOCC2)C1 | 1.37 | 0.9% | i
O=C(COc1ccc2ccccc2c1)N1CCN(c2ccccc2O)CC1 | 0.35 | -6.2% | i
O=C(CN1C(=O)c2ccccc2S1(=O)=O)Nc1cccnc1 | -0.86 | 1.0% | i
CCOCCCn1c(=S)[nH]c2ncccc2c1=O | -0.75 | -1.3% | i
CN(C)C(=O)Cn1c(=O)n(C)c2ccccc21 | 0.95 | 1.3% | i
CC1N(C)c2cccc3cccc(c23)N1C | . | 0.1% | i
COC(=O)c1cc(=O)nc2sc3ccccc3n12 | -0.27 | 4.9% | i

Screening data as filed in PubChem BioAssay.
